High-throughput results: PubChem, ICCB-Longwood Screening Facility, Harvard Medical School
GIV Gai3 FP = blocks GIV peptide binding to rat Galpha-i3; P08753; Galpha-i3/FITC-GIV peptide fluorescence polarization, 90 min; stronger effect = lower value; scaled: aluminum fluoride 0%, vehicle 100%; percent of control (FP), % (test concentration not listed); 210,000 tested, 0.42% active; AID 1224905;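 active = replicate mean at 85% of control or lower, very high polarization wells dropped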;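 note: wells of about 15 µL received 100 nL stock; the first replicate is given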
Target sequence (P08753 whole entry, looked up): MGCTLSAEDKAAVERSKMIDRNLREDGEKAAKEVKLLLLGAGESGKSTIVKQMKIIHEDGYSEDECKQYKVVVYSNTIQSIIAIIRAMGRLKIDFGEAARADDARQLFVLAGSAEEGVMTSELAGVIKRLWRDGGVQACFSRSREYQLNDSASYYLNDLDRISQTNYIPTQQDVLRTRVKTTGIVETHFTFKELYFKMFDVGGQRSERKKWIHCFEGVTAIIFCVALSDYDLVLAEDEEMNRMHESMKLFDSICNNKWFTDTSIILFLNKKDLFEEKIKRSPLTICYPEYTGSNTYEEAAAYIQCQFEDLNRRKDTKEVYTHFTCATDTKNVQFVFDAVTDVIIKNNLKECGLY
HCMV UL50-53 inh = inhibitors of HCMV UL50-UL53 nuclear egress complex interaction; AID 1918969; 190,000 tested, 0.15% active; inhibition, % (no concentration beside the values); HTRF UL50-UL53 interaction, normalized percent inhibition;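 active = both replicates at 50% or more, plus weaker picks with an unusually low signal ratio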;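 note: stock transfer was 100 nL into about 20 µL; 0% = negative control wells and 100% = wells with untagged competitor protein; inactives centre near -12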
Sa growth inh = blocks Staphylococcus aureus growth | relative growth, % (test concentration not listed) | 170,000 tested, 0.53% active | AID 720641 | S. aureus RN4220 growth, OD600, 20 h, 42 °C; stronger effect = lower value;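 active = growth at 42 °C up to 50% and 20 or more points under that at 30 °C, or under 10% at both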;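 note: 300 nL library stock went into each well; scaled to the means of positive and negative controls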
Sa growth inh second temp = further read-out of Sa growth inh, marked with its call; relative growth, %; measured here: growth at 30 °C;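 optical density after 20 h as mean of two plates; 100% = untreated growth and lower means inhibition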
An asterisk follows results filed as active; . = not tested or not shown; & = joins results of further samples.

Screens in order: GIV Gai3 FP	HCMV UL50-53 inh	Sa growth inh second temp	Sa growth inh
- Cc1cc(C)cc(N=C2NC(=O)/C(=C/c3ccc(N(C)C)cc3)S2)c1
    124.8	-22.5	.	.
- CCC1CCc2c(sc(NC(=O)C3c4ccccc4Oc4ccccc43)c2C#N)C1 (stereo not drawn)
    104.4	-29.4	88.9	92.8
- Cc1ccccc1OCCSc1nnc(-c2ccc([N+](=O)[O-])cc2)o1
    99.4	5.5	95.7	107.3
- CCOc1ccccc1N(CC)C(=O)Nc1cn(C)c(=O)c2ccccc12
    109.1	.	105.2	105.0
- COc1ccc(CC(=O)Nc2cc(-c3nc4cccnc4s3)ccc2C)cc1
    112.5	-8.1	85.2	86.0
- COc1ccc(C)c2sc(N3CCN(c4nc5c(OC)ccc(C)c5s4)CC3)nc12
    98.3	.	79.7	77.7
- CCN(CC)c1ccc(C2NC(=O)NC(C)=C2C(=O)OCCOc2ccccc2)cc1 (stereo not drawn)
    98.8	-0.1	.	.
- COc1ccccc1OCc1nnc(-c2ccccc2)o1
    95.4	-4.3	85.2	89.0
- O=C1Nc2ccccc2O/C1=C\c1ccc(C(=O)NCCC2=CCCCC2)cc1
    100.9	.	89.5	104.9
- CSC(=NC12CC3CC(CC(C3)C1)C2)NC#N
    112.3	-0.6	93.6	99.3
- Fc1ccc(OCCc2nc(-c3ccc(C4SCCS4)cc3)no2)cc1
    102.0	-4.2	100.4	103.3
- O=C(CCN1C(=O)c2ccccc2S1(=O)=O)Nc1ccccc1Br
    101.4	-14.0	.	.
- O=C(COc1ccc(F)cc1)Nc1ccc(OCc2cc(=O)n3ccsc3n2)cc1
    104.4	-23.3	83.5	99.3
- CC(Sc1nc2ccccc2c(=O)[nH]1)C(=O)Nc1ccc(N2CCOCC2)cc1 (stereo not drawn)
    .	-24.3	94.0	92.5
- Cc1cccc(Cn2nc(-c3ccc4c(c3)OCO4)ccc2=O)c1
    102.5	-51.1	.	.
- O=C(O)c1ccn2c(C(=O)c3ccccc3)c(-c3ccccc3)cc2c1
    102.7	.	23.9	44.5
- O=C(c1cccc(Cl)c1)N1N=C(c2ccc(Br)cc2)CC1(O)C(F)(F)F (stereo not drawn)
    105.2	-24.8	.	.
- NC(=O)COC(=O)c1cnc(Cl)c(Cl)c1
    .	-42.8	81.3	99.5
- CC1CCc2cc(F)ccc2N1C(=O)c1cc2ccccc2oc1=O (stereo not drawn)
    109.9	-9.5	95.9	115.0
- CCn1ccc2c(OCC(=O)Nc3ccc(C)c(Cl)c3)cccc2c1=O
    94.5	.	85.4	102.0
- COc1ccc2nc3sc(C(=O)Nc4ccccc4F)cc3cc2c1
    102.7	-17.7	89.9	120.9
- CCN(C(=O)Nc1cn(C)c(=O)c2ccccc12)c1cc(C)ccc1C
    96.4	-25.8	84.2	115.1
- COCC(C)n1c(COc2ccccc2F)nnc1SCc1c(C)noc1C (stereo not drawn)
    .	-2.7	95.5	91.8
- O=C(Nc1nn2c(-c3ccco3)nnc2s1)c1ccco1
    99.1	.	68.8	105.0
- CC1CC(N(C(=O)c2ccco2)c2ccccc2)c2ccccc2N1 (stereo not drawn)
    .	-5.5	99.1	99.7
- CCOC1C(OCC)N(S(=O)(=O)c2ccc(C)cc2)CCN1S(=O)(=O)c1ccc(C)cc1 (stereo not drawn)
    104.4	-6.9	102.2	112.0
- Cc1ccc(-n2c(=O)c3c(c4cc(C)ccc4n3C)n(CC(=O)Nc3c(C)cccc3C)c2=O)cc1
    107.8	.	89.8	100.0
- CCOC(=O)c1c(NC(=O)Cc2csc(-c3ccccc3)n2)sc2c1CCC2
    100.7	0.3	.	.
- O[C@H]1C2C3CC4C5C3C1C5C1(OCCO1)C42 (stereo partly drawn)
    98.8	-48.4	92.3	92.2
- CCc1nc2nc3c(c(N4CCN(c5ccccc5)CC4)n2n1)CCC3
    104.4	3.3	.	.

Some of these compounds in order of SMILES length, ascending:
Screens in order: GIV Gai3 FP	HCMV UL50-53 inh	Sa growth inh second temp	Sa growth inh
- NC(=O)COC(=O)c1cnc(Cl)c(Cl)c1
    .	-42.8	81.3	99.5
- O[C@H]1C2C3CC4C5C3C1C5C1(OCCO1)C42 (stereo partly drawn)
    98.8	-48.4	92.3	92.2
- O=C(Nc1nn2c(-c3ccco3)nnc2s1)c1ccco1
    99.1	.	68.8	105.0
- COc1ccc2nc3sc(C(=O)Nc4ccccc4F)cc3cc2c1
    102.7	-17.7	89.9	120.9
- CC1CCc2cc(F)ccc2N1C(=O)c1cc2ccccc2oc1=O (stereo not drawn)
    109.9	-9.5	95.9	115.0
- Cc1cccc(Cn2nc(-c3ccc4c(c3)OCO4)ccc2=O)c1
    102.5	-51.1	.	.
- Fc1ccc(OCCc2nc(-c3ccc(C4SCCS4)cc3)no2)cc1
    102.0	-4.2	100.4	103.3
- CCc1nc2nc3c(c(N4CCN(c5ccccc5)CC4)n2n1)CCC3
    104.4	3.3	.	.
- CCn1ccc2c(OCC(=O)Nc3ccc(C)c(Cl)c3)cccc2c1=O
    94.5	.	85.4	102.0
- CCN(C(=O)Nc1cn(C)c(=O)c2ccccc12)c1cc(C)ccc1C
    96.4	-25.8	84.2	115.1
- O=C(O)c1ccn2c(C(=O)c3ccccc3)c(-c3ccccc3)cc2c1
    102.7	.	23.9	44.5
- CCOC(=O)c1c(NC(=O)Cc2csc(-c3ccccc3)n2)sc2c1CCC2
    100.7	0.3	.	.
- O=C(COc1ccc(F)cc1)Nc1ccc(OCc2cc(=O)n3ccsc3n2)cc1
    104.4	-23.3	83.5	99.3
- CC(Sc1nc2ccccc2c(=O)[nH]1)C(=O)Nc1ccc(N2CCOCC2)cc1 (stereo not drawn)
    .	-24.3	94.0	92.5
- CCOC1C(OCC)N(S(=O)(=O)c2ccc(C)cc2)CCN1S(=O)(=O)c1ccc(C)cc1 (stereo not drawn)
    104.4	-6.9	102.2	112.0
- Cc1ccc(-n2c(=O)c3c(c4cc(C)ccc4n3C)n(CC(=O)Nc3c(C)cccc3C)c2=O)cc1
    107.8	.	89.8	100.0

Further compounds
Screens in order: GIV Gai3 FP	HCMV UL50-53 inh	Sa growth inh second temp	Sa growth inh
- Cc1cccc(N2CCN(C(=O)CN3CCSc4ccccc43)CC2C)c1 (stereo not drawn)
    104.1	.	92.0	94.3
- c1ccc2c(c1)N1CCCCCC1N2Cc1ccncc1 (stereo not drawn)
    105.2	-48.4	66.7	90.6
- O=C(C1CCN(c2ncnc3c2sc2cccc(F)c23)CC1)N1CCN(c2ccccc2)CC1
    104.0	45.0	.	.
- COc1ccc(C)cc1NC(=O)C(=O)NCCc1sc(-c2ccc(Cl)cc2)nc1C
    101.4	.	85.3	85.7
- CC(=O)c1ccc(NC(=O)CSc2nccn2Cc2ccc3c(c2)OCO3)cc1
    103.9	.	100.1	104.2
- Cc1cccc(NC(=O)C2CCN(S(=O)(=O)c3c(C)noc3/C=C/c3ccco3)CC2)c1
    117.8	-24.6	83.4	112.6
- CCOC(=O)C12CCCC(C(=O)OCC)(CC1=O)C(=O)C2
    99.6	-8.2	85.7	94.9
- CCCC1CCC(c2ccc(C(=O)CCN(C)C)cc2)CC1 (stereo not drawn)
    .	3.2	-0.2*	-0.5*
- COC(=O)/C=C/S(=O)(=O)c1ccc(Br)cc1
    103.9	-2.0	10.1	35.5
- CCS(=O)(=O)N(C)c1ccc(C(=O)Nc2ccc(OC)cc2OC)cc1
    97.1	-28.7	93.7	95.9
- CCN(CC(=O)c1ccc(Cl)s1)C1CCCCC1
    .	-20.6	87.5	84.4
- CC1C(=O)N(C)C(=O)c2nc[nH]c21 (stereo not drawn)
    100.8	-33.2	.	.
- O=C(CSc1nccn1Cc1ccccc1)NCc1ccc(F)cc1
    95.0	.	91.1	111.0
- CCC(=O)N1CCc2cc(S(=O)(=O)NC(CC(C)C)C(=O)NCCc3cccc(C)c3)ccc21 (stereo not drawn)
    103.6	-19.5	74.7	98.0
- O=C(NC1CCCCC1)C1=Cc2ccccc2OC=C1
    101.5	-36.6	.	.
- CCN1C(=O)/C(=c2\sc3nc(-c4ccccc4OC)nn3c2=O)c2cc(Br)ccc21
    104.7	-44.1	72.4	94.5
- CCOc1ccc(C(=O)CC(N)C(=O)O)cc1 (stereo not drawn)
    .	-6.1	78.8	79.4
- CCOC(=O)c1c(CN(C)C)n(C)c2c(O)c(N=NC(N)=O)c3ccc(Br)cc3c12
    92.7	-7.7	56.7	78.2
- O=C(NC1CCCC1)c1cc2c(s1)CSC2
    111.6	-16.5	64.5	95.0
- O=C(O)CCCC(=O)Nc1ccc(Oc2ncnc3cc(Cl)ccc23)nc1
    102.4	-14.3	95.7	96.3
- COc1ccc(NC(=O)c2c(-c3ccc(C)cc3)nnc3ccccc23)cc1OC
    98.4&96.8	-21.9	91.3	91.5
- COc1ccc(NC(=O)CC2c3ccccc3Oc3ccccc32)c(OC)n1
    105.3	4.7	91.2	115.6
- COC(=O)c1cn(CC(=O)NCc2ccco2)c2ccccc12
    .	-17.4	78.6	99.8
- CN(C)S(=O)(=O)c1ccc2c3c(cccc13)C(=O)N2C(=O)c1ccco1
    103.8	-38.4	89.0	117.2
- CCOC(=O)Nc1cc(C(=O)OCC)c(C)nc1C
    109.6	.	90.7	80.9
- O=c1[nH]nc2ccc(SCc3ccc(Cl)cc3)nn12
    100.1	-93.1	.	.
- CN(C(=O)c1cn(C)c(=O)c2ccccc12)c1ccccc1
    97.2	.	91.2	88.0
- N#CCCN(CCc1ccccn1)C(=O)Nc1ccccc1
    104.6	-2.6	99.5	108.2
- CCC(=O)Nc1nc2ccccc2n1CCN(CC)CC
    100.2	-13.1	84.5	89.4
- NS(=O)(=O)c1ccc(NC(=S)N2CCC(O)CC2)cc1
    95.6	.	77.5	99.6
- Cc1cc(I)ccc1NC(=O)C(C(C)C)N1C(=O)c2ccccc2C1=O (stereo not drawn)
    .	-4.6	74.8	102.6
- Cc1ccc(Cn2nnc3c(N4CCOCC4)nc(C)nc32)cc1
    99.5	-1.9	.	.
- O=C(NCCC12CC3CC(CC(C3)C1)C2)C1CCCCC1
    102.8	.	100.8	98.8
- N#Cc1ccccc1COc1ccc(CO)cc1
    102.1	1.2	97.5	104.3
- Cc1ccccc1-c1nc2scc(CCNC(=O)COc3ccc(Cl)cc3)n2n1
    101.4	-15.1	.	.
- COc1ccc(-c2nnc(C3CCN(C(=O)c4ccccc4F)CC3)o2)cc1
    100.1	-33.7	87.0	103.6
- C(=N\NC1=NCCN1Cc1ccccc1)/c1ccc2c(c1)OCO2
    101.5	-16.9	97.5	106.4
- COc1ccc(S(=O)(=O)Nc2ccc(-c3ccc(N4CCCC4)nn3)cc2)cc1
    104.6	-30.8	.	.
- Cc1ccc(C(=O)c2oc3ccccc3c2NC(=O)COc2ccc(C(C)C)cc2)cc1
    106.5	-4.8	89.2	86.5
- Cc1ccn(C(=O)COc2ccc(Cl)cc2)n1
    103.0	-5.0	76.1	82.9
- CCOC(=O)CC(NC(=O)c1cc2c(=O)n3cccc(C)c3nc2s1)c1ccc(OCC)c(OC)c1 (stereo not drawn)
    107.1	-5.5	108.7	92.8
- CC(=O)Nc1ccccc1NC(=O)c1ccco1
    100.6	.	106.5	112.7
- Cc1cccc(-c2c3c(nc4ncnn24)-c2ccccc2C3=O)c1
    102.7	-34.3	77.0	100.4
- CC(NCc1ccccc1O)C(=O)O (stereo not drawn)
    102.1	-4.5	102.1	97.7
- COc1ccc(OC)c(CNC(=O)c2cnc(N(C)C)nc2)c1
    103.5	.	87.7	94.4
- N#CCCn1cc(C(CC(=O)c2ccccc2)C(=O)O)c2ccccc21 (stereo not drawn)
    96.8	-0.3	90.5	103.0
- CCCC(=O)N(Cc1nc2nc(C)cc(=O)n2[nH]1)c1ccc(Cl)cc1
    98.4	5.6	.	.
- O=C(O)c1ccc(NC(=O)c2cn(-c3ccccc3)nc2-c2cc3ccccc3o2)cc1
    .	-11.7	81.7	66.4
- CNC(=O)c1ccc(-c2nc(CN3CCN(C(=O)Nc4ccc(C(=O)OC)cc4)CC3)c(C)o2)cc1
    109.2	-25.9	.	.
- CCC(C(=O)NCCc1ccc(Cl)cc1)n1ccc2cc(S(=O)(=O)N3CCCCC3)ccc21 (stereo not drawn)
    98.4	.	89.3	95.2
- O=C(c1ccccc1)N(Cc1ccco1)C1(C(=O)Nc2ccccc2)CCCCC1
    .	-19.5	93.8	104.1
- COc1ccc(N2CCN(c3csc4ccccc4c3=O)CC2)cc1
    103.3	.	76.5	94.5
- Cc1ccc(Cl)cc1NC(=O)c1ccc(Cn2cc(Cl)cn2)cc1
    100.5	.	89.3	127.0
- COC(=O)c1c(NC(=O)CCN2C(=O)c3ccccc3C2=O)sc2c1C(C(=O)OC)CC2 (stereo not drawn)
    100.5	-27.1	.	.
- CC(C(=O)O)c1ccc2c(c1)Cc1cccnc1O2 (stereo not drawn)
    98.2	-36.1&-14.5	87.8	96.3
- N#Cc1c(NC(=O)c2cc3nc(-c4ccc(Br)cc4)cc(C(F)(F)F)n3n2)sc2c1CCCC2
    105.0	.	89.8	103.0
